NR2E3 ag-1: activates human photoreceptor nuclear receptor NR2E3 | Q9Y5X4 | GST-NR2E3/biotin-RetCOR TR-FRET, 1536-well | inhibition of corepressor binding, % at 4.78 µM | 320,000 tested, 0.12% active | AID 2300;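 active = percent inhibition above the cutoff of mean plus 3 SD of all tested compounds, set per screening campaign, cut at about 20% in these data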;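 also: 0% = DMSO wells and 100% = biotin wells as full block of FRET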
Target sequence (Q9Y5X4 whole entry, looked up): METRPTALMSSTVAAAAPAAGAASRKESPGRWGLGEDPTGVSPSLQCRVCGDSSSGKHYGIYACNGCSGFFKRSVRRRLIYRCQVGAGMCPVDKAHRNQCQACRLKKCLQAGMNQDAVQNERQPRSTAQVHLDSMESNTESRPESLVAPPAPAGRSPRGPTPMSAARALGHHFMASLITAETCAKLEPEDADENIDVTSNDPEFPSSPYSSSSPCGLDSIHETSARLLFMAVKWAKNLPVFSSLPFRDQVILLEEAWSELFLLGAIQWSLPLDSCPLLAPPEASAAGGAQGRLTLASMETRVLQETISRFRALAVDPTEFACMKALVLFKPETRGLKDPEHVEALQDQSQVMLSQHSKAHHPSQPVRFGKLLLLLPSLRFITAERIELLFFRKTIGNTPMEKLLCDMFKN
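Material – GST-tagged NR2E3 plus biotinylated RetCOR corepressor · Quantity – NR2E3 fusion 1.35 nM · Times – 5 h incubation at 4 °C · Medium – pH 7.5 Tris-based buffer · Technique – TR-FRET, Eu(K)-anti-GST donor, streptavidin-D2 acceptor, ex 340, em 617/671 nm · Benchmarks – high control biotin, low control 0.6% DMSO · Format – 1536-well plates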
TROY NFkB inh: blocks TROY-dependent signaling in reporter cells. inhibition, % at 10 µM. AID 1347056. Q293 LMP1-TROYcd NF-kB luciferase reporter, 4 h. 360,000 tested, 0.98% active;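 active = compounds whose plate-normalised and pattern-corrected inhibition of the luciferase reporter signal at the single screening dose is 50% or more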
Shn3 inh set2: reduces Shn3 3'UTR luciferase signal in osteoblasts | Clone20 osteoblast Shn3 3'UTR firefly luciferase, 24 h | inhibition, % at 12.5 µM | 360,000 tested, 0.52% active | AID 588674;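 active = mean inhibition of at least 75% with every replicate also reaching 75%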;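 also: 0% = median of neutral control wells and 100% = pilot-screen positive control compound; some compounds past the cut are filed as inactive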
KKLEB tox: counter-screen for CF NF-kB inhibitors: cytotoxicity. KKLEB CF airway cells viability, ATPlite luminescence, overnight; active compounds read low; cells stimulated with P. aeruginosa culture filtrate. AID 602141. 360,000 tested, 0.36% active. activity change (cytotoxicity), % at 5 µM;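 active = corrected activity change at or below -50% at 5 µM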
TRAIL sens C8: caspase-8 TRAIL sensitization | NB7+C8 cells + TRAIL, ATPlite viability luminescence | inhibition (viability loss, TRAIL sensitization), % at 10 µM | 360,000 tested, 1% active;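 active = compounds causing at least 50% loss of cell viability in the single-dose screen, relative to plate controls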
NR2E3 ag-2: agonists of human NR2E3 nuclear receptor. CHO-S Gal4-NCOR/VP16-NR2E3 two-hybrid, luciferase. 360,000 tested, 0.35% active. inhibition of corepressor binding, % at 3.98 µM. AID 602229;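 active = inhibition above the mean of all tested compounds plus 3 SD, cut at about 70% in these data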;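 also: 0% = DMSO with NR2E3 transfected cells and 100% = cells lacking NR2E3 construct; higher means lower luciferase signal from less NR2E3 corepressor binding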
An asterisk follows results filed as active; & = joins results of further samples.

SMILES	NR2E3 ag-1	TROY NFkB inh	Shn3 inh set2	KKLEB tox	TRAIL sens C8	NR2E3 ag-2
CC(NC(C)(C)C)C(=O)c1cccc(Cl)c1 (stereo unspecified)	-0.3&-0.3	4.5	15.6	13.7	-3.4	-33.4
C[C@]12CC[C@H](O)C[C@H]1CC[C@@H]1[C@@H]2C[C@@H](O)[C@]2(C)[C@@H](C3=CC(=O)OC3)CC[C@]12O	4.1	47.2	-6.2	11.0	56.0*	-17.5
C=C(C)[C@H]1CN[C@H](C(=O)O)[C@H]1CC(=O)O	3.8	4.8	1.9	16.8	-6.1	2.8
CC[N+](CC)(CC)CC	4.2	8.5	-13.9	8.7	0.8	-21.9
C[C@@H]1O[C@@H](O[C@H]2C[C@@H](O)[C@]3(CO)[C@@H]4C(CC[C@]3(O)C2)[C@@]2(O)CC[C@H](C3COC(=O)C3)[C@@]2(C)C[C@H]4O)[C@H](O)[C@H](O)[C@H]1O (stereo partly specified)	4.4	43.7	-26.9	35.3	10.7	-0.1
N[C@@H]1C[C@H]1c1ccccc1	5.2	2.4	-28.0	11.8	-1.5	-24.4
NCCc1ccc(O)cc1	4.7	-2.4	12.6	18.1	0.4	6.5
c1ccc2c(c1)OCC(C1=NCCN1)O2 (stereo unspecified)	4.2	5.0	2.6	10.9	-5.8	-1.2
Clc1cnc(Oc2ccc(Oc3ncc(Cl)cc3Cl)cc2)c(Cl)c1	-0.3	-4.8	12.7	-3.9	8.0	-3.0
C[N+]1(C)C2CC(OC(=O)C(CO)c3ccccc3)CC1C1OC12 (stereo unspecified)	1.2	0.3	-1.2	24.2	-2.3	-9.1

Random excerpt: 2 records from the list
SMILES	NR2E3 ag-1	TROY NFkB inh	Shn3 inh set2	KKLEB tox	TRAIL sens C8	NR2E3 ag-2
Clc1cnc(Oc2ccc(Oc3ncc(Cl)cc3Cl)cc2)c(Cl)c1	-0.3	-4.8	12.7	-3.9	8.0	-3.0
C[C@@H]1O[C@@H](O[C@H]2C[C@@H](O)[C@]3(CO)[C@@H]4C(CC[C@]3(O)C2)[C@@]2(O)CC[C@H](C3COC(=O)C3)[C@@]2(C)C[C@H]4O)[C@H](O)[C@H](O)[C@H]1O (stereo partly specified)	4.4	43.7	-26.9	35.3	10.7	-0.1

Nothing new here: 7 of the compounds above.
SMILES	NR2E3 ag-1	TROY NFkB inh	Shn3 inh set2	KKLEB tox	TRAIL sens C8	NR2E3 ag-2
CC[N+](CC)(CC)CC	4.2	8.5	-13.9	8.7	0.8	-21.9
C[C@@H]1O[C@@H](O[C@H]2C[C@@H](O)[C@]3(CO)[C@@H]4C(CC[C@]3(O)C2)[C@@]2(O)CC[C@H](C3COC(=O)C3)[C@@]2(C)C[C@H]4O)[C@H](O)[C@H](O)[C@H]1O (stereo partly specified)	4.4	43.7	-26.9	35.3	10.7	-0.1
N[C@@H]1C[C@H]1c1ccccc1	5.2	2.4	-28.0	11.8	-1.5	-24.4
NCCc1ccc(O)cc1	4.7	-2.4	12.6	18.1	0.4	6.5
c1ccc2c(c1)OCC(C1=NCCN1)O2 (stereo unspecified)	4.2	5.0	2.6	10.9	-5.8	-1.2
Clc1cnc(Oc2ccc(Oc3ncc(Cl)cc3Cl)cc2)c(Cl)c1	-0.3	-4.8	12.7	-3.9	8.0	-3.0
C[N+]1(C)C2CC(OC(=O)C(CO)c3ccccc3)CC1C1OC12 (stereo unspecified)	1.2	0.3	-1.2	24.2	-2.3	-9.1

A portion of the library; count on the stated rates, not on these rows.
